# Screens deposited in PubChem by ICCB-Longwood Screening Facility, Harvard Medical School.
# Mtb MenB inh – M. tuberculosis MenB inhibitors, primary screen, biochemical, absorbance; inhibition, %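 (about 12 µg/mL by stock and volumes)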; MenB enzyme assay, absorbance read-out; some hits fall short of the stated cut; hit rate 0.43% among 100,000; 1,4-dihydroxy-2-naphthoyl-CoA synthase (Mycobacterium tuberculosis (strain ATCC 25618 / …; AID 540299, 2011;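 active means mean of two replicates above 30%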;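 further: 0% = no compound and 100% = wells with inactive enzyme; the first replicate is given; strong numbers were not always called active; inactives centre near -10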
# Target sequence (P9WNP5 whole entry, looked up): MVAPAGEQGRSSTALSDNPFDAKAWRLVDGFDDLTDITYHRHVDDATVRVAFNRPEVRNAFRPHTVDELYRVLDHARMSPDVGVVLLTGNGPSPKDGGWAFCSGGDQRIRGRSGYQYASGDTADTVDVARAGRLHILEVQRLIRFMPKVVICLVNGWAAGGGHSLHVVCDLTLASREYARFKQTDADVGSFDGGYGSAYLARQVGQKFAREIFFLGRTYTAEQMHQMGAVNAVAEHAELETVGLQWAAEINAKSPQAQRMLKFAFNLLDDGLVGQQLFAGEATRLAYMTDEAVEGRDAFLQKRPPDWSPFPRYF
# Polio RdRp inh – poliovirus RdRp elongation inhibitors, primary screen, biochemical, fluorescence polarization, total intensity; poliovirus polymerase elongation; hits give low values; % elongation, % (compound at 16.7 µg/mL); hit rate 0.66% among 150,000; in the data active means % elongation below about 90%; further: some results filed as inactive read as strong as hits
# Mtb MbtI inh – MbtI salicylate synthase inhibitors, primary screen, biochemical, fluorescence intensity. P9WFX0. purified MbtI enzyme, fluorescence intensity read-out. inhibition, %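 (about 17 µg/mL by stock and volumes)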. hit rate 0.89% among 100,000. AID 493033, 2011;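 active means above 50% in both replicates, above 80% if mildly self-fluorescent; inactive means the rest, strongly fluorescent compounds included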;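 further: 0% = mean of negative and 100% = mean of positive controls; one replicate is shown; some compounds called inactive have numbers as strong as hits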
# Target sequence (P9WFX0 whole entry, looked up): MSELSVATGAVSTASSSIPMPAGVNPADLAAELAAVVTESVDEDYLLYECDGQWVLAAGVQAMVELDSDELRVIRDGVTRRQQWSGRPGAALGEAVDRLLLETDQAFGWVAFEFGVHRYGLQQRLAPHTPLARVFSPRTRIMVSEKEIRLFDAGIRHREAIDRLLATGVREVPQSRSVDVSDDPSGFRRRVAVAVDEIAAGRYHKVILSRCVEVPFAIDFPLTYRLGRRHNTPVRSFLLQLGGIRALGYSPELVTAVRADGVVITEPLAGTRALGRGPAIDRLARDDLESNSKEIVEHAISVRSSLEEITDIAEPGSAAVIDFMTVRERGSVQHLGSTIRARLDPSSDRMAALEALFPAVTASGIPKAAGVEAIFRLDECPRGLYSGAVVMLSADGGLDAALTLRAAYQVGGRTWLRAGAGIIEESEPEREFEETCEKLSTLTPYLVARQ
# Polio RdRp inh intensity – further read-out of Polio RdRp inh, marked with its call; % elongation; measured here: total intensity read-out; formula for this scale not given here;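 total fluorescence in place of polarization; lower means less elongation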
# Numbers without * were called inactive; i = inactive; / = not tested or not shown.
# Values run as follows: Mtb MenB inh, Polio RdRp inh, Polio RdRp inh intensity, Mtb MbtI inh
- COc1ccc(-c2oc(/N=C/N3CCCCC3)c(C#N)c2-c2ccc(OC)cc2)cc1
  -42, 103, 104, -7
- CC1(C)C(=O)OC(c2cccs2)C(C)(C)C1=O (configuration not stated)
  -9, 109, 102, /
- O=C(NCc1ccc(Cl)cc1)c1cc2c(s1)CCC2
  /, 101, 102, -4
- O=C1COc2cc(S(=O)(=O)NCc3ccccc3)ccc2N1
  -29, 104, 97, -3
- CC(C)C(=O)N(c1nnc(-c2ccncc2)s1)C(C)C
  -32, 100, 101, 9
- CN(Cc1ccccc1)C(=O)CCc1nc2cccnc2n1Cc1ccccc1
  -6, 103, 102, 2
- O=C(NC(Cc1nc2ccccc2[nH]1)c1ccccc1)c1ccccc1 (configuration not stated)
  /, 99, 96, -7
- COc1ccc(C2CC(c3c(O)cc(C)oc3=O)=NCCS2)c(OC)c1 (configuration not stated)
  -67, 102, 104, -9
- CC1CN(S(=O)(=O)c2ccc(NC(=O)CN3C(=O)COc4ccccc43)cc2)CC(C)O1 (configuration not stated)
  -4, 98, 101, 3
- COC(=O)/C=C/C(=O)Nc1ccccc1
  -11, 101, 104, 101*
- Cc1c2cnn(CC(=O)NC(C)c3ccc4c(c3)OCCO4)c(=O)c2c(C)n1Cc1ccc(F)cc1 (configuration not stated)
  1, 104, 99, 5
- Nc1sc2ccccc2[n+]1CC(=O)Nc1ccc(Cl)cc1
  /, 98, 97, -2
- CCCN(CCO)CCCc1ccccc1
  -11, 101, 99, 3
- Cn1c(CNC(=O)c2ccccc2)n[nH]c1=S
  4, 104, 104, 36
- CC1(C)CC(=O)C=C(N2CCN(Cc3ccccc3)CC2)C1
  -3, 106, 108, 18
- O=C(CSc1nnc(-c2ccc(OC(F)F)cc2)o1)NCC12CC3CC(CC(C3)C1)C2
  -25, 99, 97, -36
- C=CCNC(=O)COc1ccc(Cl)cc1Cl
  -1, 105, 110, /
- CC(C)Cc1oc(C(=O)O)cc1CN
  25, 99, 103, -2
- CCS(=O)(=O)c1cccc(C(=O)Nc2nccs2)c1
  -3, 106, 106, 8
- NC(=O)c1ccccc1NC(=O)CSc1nc(N)cc(=O)[nH]1
  26, 100, 102, -13
- O=C1NN=C(c2ccccc2)C1CCO (configuration not stated)
  1, 102, 101, 1
- O=C(Nc1ccccc1)N1CCN(Cc2ccc3c(c2)OCO3)CC1
  15, 99, 99, 11
- COC(=O)C(NC=O)C(O)(c1ccc(OC)cc1)C(F)(F)F (configuration not stated)
  -14, 103, 107, -8
- COc1ccc(CCNC(=O)CSc2nc(O)c(C(C)C)c(=O)[nH]2)cc1OC
  -1, 102, 101, -22
- O=C(/C=C/c1cccs1)N(C1CC1)C1(C(=O)Nc2ccccc2)CCCC1
  /, 105, 108, 12
- CCCC(=O)Nc1ccc(Cl)c(Cl)c1
  5, 99, 107, 4
- C1CCN(SN2CCCCC2)CC1
  -67, 78*, 81*, /
- Cc1ccc(CN(C)Cn2nc(-c3c[nH]c4ccccc34)n(CC3CCCO3)c2=S)o1 (configuration not stated)
  -24, 109, 110, 55
- Cc1cc(C)c(Cn2c(=O)n(NC(=O)c3ccccc3)c(=O)c3sccc32)c(C)c1
  -7, 103, 107, -12
- C=C1O[C@@](CO)(n2cnc3c(N)ncnc32)[C@H](O)[C@@H]1O
  /, 99, 102, -1
- COc1ccc(C2=NN(C(=O)CSc3n[nH]c(-c4ccc(Br)cc4)n3)C(c3ccco3)C2)cc1 (configuration not stated)
  5, 102, 103, -230
- O=C(Nc1c[nH]c2cc(Cl)ccc2c1=O)N1CCCCC1
  -60, 109, 100, 89
- CCCC(=O)N(C)c1nnc(-c2ccc(F)cc2)s1
  -26, 98, 99, 16
- O=C(Nc1ccc(-c2nc3ccccc3s2)cc1)c1cccc(F)c1
  -22, 101, 97, 1
- C=CCNS(=O)(=O)c1ccc(SC)cc1
  -8, 103, 103, 2
- CCc1nnc(NC(=O)C2CCCO2)s1 (configuration not stated)
  -25, 106, 103, 4
- CCN1CCN(C(=O)CCc2nc3ccccc3n2-c2ccccc2)CC1
  10, 99, 105, -1
- O=C(O)CC(O)(c1ccccc1)C(F)(F)F (configuration not stated)
  /, 102, 104, -14
- O=c1c(Cc2ccccc2OCc2ccccc2)coc2ccccc12
  -24, 104, 108, -4
- C=CCSc1nc2ccccc2n1C(=O)c1ccc2c(c1)OCO2
  31, 102, 104, -4
- c1ccc(OCCSc2nc3ccccc3n2CCOc2ccccc2)cc1
  -12, 100, 104, 1
- CCOc1ccccc1NC(=O)COc1ccccc1F
  /, 100, 100, -16
- CC(=O)Oc1ccc(-c2ccccc2)cc1
  8, 104, 107, 0
- Cc1cc(N2CCOCC2)nc(SCc2cc3c(cc2Cl)OCO3)n1
  -13, 99, 106, 3
- O=C(CCSCCc1ccncc1)N1CCOCC1
  17, 97, 100, -6

# Following part
structure	Mtb MenB inh	Polio RdRp inh	Polio RdRp inh intensity	Mtb MbtI inh
CC(=O)OC1(c2ccccc2)CCN(C)C2CCCCC21 (configuration not stated)	-8	100	104	-5
O=C(CN1CCN(Cc2ccc(F)cc2Cl)CC1)NCc1ccccc1	-18	105	102	-23
O=C(O)CCN1C(=O)SC(Nc2cccc3ccccc23)C1=O (configuration not stated)	-26	101	103	84
Cc1cc(C)n2c(Nc3c(C)cccc3C)c(-c3ccc(Cl)s3)nc2n1	0	101	108	3
C/C=C/c1ccc(OCC(=O)OC(C)C(N)=O)c(OC)c1 (configuration not stated)	-17	97	99	-2
NS(=O)(=O)c1ccc(NC(=O)CN2CC(=O)NC(=O)C2)cc1	-22	101	101	-2
COc1ccc(C(=O)CCC(=O)O)c(OC)c1	-4	101	100	13
Nc1c2c(nn1-c1ccccc1)CCC2	12	97	104	2
c1cc(-c2nc3cc4sc(-c5ccn[nH]5)nc4cc3s2)[nH]n1	-4	97	104	22
CC(C)Oc1ccc(C2CC(=O)Nc3sc(C(=O)c4ccco4)c(N)c32)cc1 (configuration not stated)	-64	/	/	-9
CC(C)(CNC(=O)C1c2ccccc2-c2ccccc21)N1CCOCC1	-29	100	102	-13
CC1CCCC(C)N1C(=O)CSc1nc2cc(Cl)ccc2o1 (configuration not stated)	-13	102	108	0
O=C(c1ccccc1)N1CCN(C2=NS(=O)(=O)c3ccccc32)CC1	-29	103	96	1
Cn1cnnc1SC1c2cccc3cccc(c23)C1NS(=O)(=O)c1ccccc1 (configuration not stated)	-26	102	100	7
CN(Cc1ccccc1)C(=O)CN1CCN(C(c2ccccc2)c2ccccc2)CC1	-26	100	95	-7
Cc1cc(C(=O)COC(=O)c2cnccn2)c(C)n1-c1ccc(OC(F)F)cc1	-20	100	103	-2
COc1ccc(Cl)cc1-c1nc(SCC(=O)NCC(F)(F)F)n[nH]1	-15	102	105	i
Cc1ccc(-c2nnn(CC(=O)N(CC(=O)NCC3CCCO3)C3CCN(Cc4ccccc4)CC3)n2)o1 (configuration not stated)	-15	105	102	-13
CCNC(=O)c1ccc(C23CC4CC(CC(C4)C2)C3)o1	-1	99	101	-7
Cc1ccc(C)c2[nH]c(=O)c(CN(CCN3CCCC3)C(=O)Nc3cccc(Cl)c3)cc12	-28	105	103	8
Cc1cc(OC(C)C(=O)Nn2cnnc2)ccc1Cl (configuration not stated)	-4	101	103	-3
Nc1cc(N)nc(SCCC(=O)O)n1	0	99	97	-5
CNC(=O)c1ccccc1-[s+]1c2ccccc2c(=O)n1C (configuration not stated)	-2	102	102	-4
COCc1cc(C)nc(Nc2ccccc2OC)c1C#N	-37	100	101	0
Cc1cc2oc(=O)cc(CN3CCCc4ccccc43)c2cc1C	-30	104	103	-25
Cc1c(N2C(=O)CSC2c2ccc(F)cc2)c(=O)n(-c2ccccc2)n1C (configuration not stated)	-21	102	99	-8
Cn1nc(C(=O)OCC(=O)C(C)(C)C)c2ccccc2c1=O	10	96	102	10
[O-][n+]1onc2c1CCc1c-2nc(-c2ccco2)n1O	-2	103	98	/
CCCc1nncn1NC(=O)OCC	-15	102	104	/
Cn1c(=NC(=O)c2cccc(C(F)(F)F)c2)sc2c3ccccc3ccc21	-3	99	94	-19
CN(CCO)CC(O)c1ccccc1 (configuration not stated)	-18	102	105	-14
COc1cccc(C(=O)NCc2ccccc2F)c1	-7	100	97	14

# A few values from above.
# Under Polio RdRp inh intensity, CN(CCO)CC(O)c1ccccc1 (configuration not stated) has the entry 105
# Under Polio RdRp inh, COc1cccc(C(=O)NCc2ccccc2F)c1 has the entry 100
# Under Mtb MenB inh, Cc1cc2oc(=O)cc(CN3CCCc4ccccc43)c2cc1C has the entry -30

# (further entries)
structure	Mtb MenB inh	Polio RdRp inh	Polio RdRp inh intensity	Mtb MbtI inh
O=C(CN1C(=O)c2ccccc2C1=O)N1CCN(Cc2ccccc2)CC1	-3	103	101	/
Cc1ccc(NC(=O)CC2(C(F)(F)F)OCCO2)cc1Cl	/	105	104	-12
COC(=O)c1sccc1NC(=O)c1c(C)nn(-c2ccccc2)c1-n1cccc1	-24	103	102	-4
c1ccc(-c2nnc(-c3ccco3)o2)cc1	/	102	99	94
O=C(Nc1c(C(=O)N2CCN(c3ncccn3)CC2)oc2ccccc12)c1cc(-c2ccc(F)cc2)on1	12	99	103	-6
N/C(CC(=O)NCc1ccccc1)=N\O	-9	103	105	-3
CC(Oc1ccc(-c2ccccc2)cc1)C(=O)N1CCN(S(C)(=O)=O)CC1 (configuration not stated)	-8	98	100	-6
O=C1C2CC3CC1CC(C(=O)O)(C3)C2	3	99	102	-7

# Compound profiles (already shown). Order of values: Mtb MenB inh	Polio RdRp inh	Polio RdRp inh intensity	Mtb MbtI inh
# Results for `O=C(Nc1c(C(=O)N2CCN(c3ncccn3)CC2)oc2ccccc12)c1cc(-c2ccc(F)cc2)on1` → 12	99	103	-6
# Results for `COC(=O)c1sccc1NC(=O)c1c(C)nn(-c2ccccc2)c1-n1cccc1` → -24	103	102	-4
# Results for `N/C(CC(=O)NCc1ccccc1)=N\O` → -9	103	105	-3
# Results for `Cc1ccc(NC(=O)CC2(C(F)(F)F)OCCO2)cc1Cl` → /	105	104	-12

# Carrying on:
structure	Mtb MenB inh	Polio RdRp inh	Polio RdRp inh intensity	Mtb MbtI inh
Cn1c(=O)c2c(ncn2CC(=O)NN)n(C)c1=O	-15	104	100	15
C=CCn1c2ccccc2c2nnc(SCc3ccccc3C)nc21	-9	115	116	/
O=C1CN(C(=O)COC(=O)C2CCN(S(=O)(=O)c3ccccc3)CC2)c2ccccc2N1	-30	103	111	-5
N#Cc1ccc(OCC(=O)c2ccccc2)cc1	-47	99	101	-10
O=S(=O)(c1cccc2nsnc12)N1CCCCC1	1	102	105	-8
Cc1[nH]c2ccccc2c1C(=O)CSc1nc2cc(S(=O)(=O)N3CCCCC3)ccc2o1	-9	/	/	-5
O=C(CCc1ccc(S(=O)(=O)N2CCOCC2)cc1)N1CCN(Cc2ccccc2)CC1	9	100	104	-42
CCn1c(SC)nnc1C1CCCN(C(=O)c2ccccc2-c2ccccc2)C1 (configuration not stated)	-32	101	103	0
CSc1nc(-c2ccco2)nn1C(=O)c1ccccc1	-3	103	97	20
Cc1scc(CN2CCOCC2)c1C	-5	100	100	-5
O=C(COc1cccc2ccccc12)Oc1ccc(-c2nnco2)cc1	-2	103	104	53
O=C(O)c1cccc(NCc2ccncc2)c1	0	105	106	/
Cn1nc(C(=O)N2CCN(C3CCS(=O)(=O)C3)CC2)c2ccccc2c1=O (configuration not stated)	4	105	110	3
CCOc1ccc2c3c(c(=O)oc2c1OCC)CCC3	/	102	100	-12
CCC1CCCCN1C(=O)COc1cccc2c1OC(C)(C)C2 (configuration not stated)	-11	100	90	31
O=C(Nc1ccccc1F)Nc1ccccc1N1CCCCC1	-11	105	102	6
Cc1csc(=NC(=O)c2ccccc2)n1Cc1ccco1	-10	104	108	-142
O=S1(=O)CCC(N=Cc2ccccc2O)C1 (configuration not stated)	-12	108	107	14
Cc1ccc(C(=O)Nc2nonc2NC(=O)c2ccc(C)cc2)cc1	8	103	104	-2
C/C(=N/NC(=O)C(F)(F)F)c1cccs1	-11	103	102	4
COc1ccc(-c2nnc(C3CCN(S(C)(=O)=O)CC3)o2)cc1	-48	105	106	10
CCN(C(=O)CSc1nc(C)cc(C)c1C(N)=O)C1CCS(=O)(=O)C1 (configuration not stated)	-28	99	90	105
Cc1ccccc1-c1oncc1-c1nnnn1-c1ccccc1	12	107	112	0
O=C(CSc1ncnc2ccccc12)Nc1ccc(F)c(F)c1F	/	102	97	-2
CN(Cc1ccccc1)C(=O)Cn1ncc2c1-c1ccccc1OC2	3	99	102	-4
O=C(OCC(=O)N1CCC(c2ccccc2)=N1)C1CC2CCCC(C1)C2=O (configuration not stated)	4	97	102	15
O=C1C2CCCN2C(=S)N1c1ccccc1 (configuration not stated)	-6	99	106	43
CCCC(=O)Nc1ccc2c(c1)c1ccccc1n2CC	-23	103	98	72
O=C(Cn1cnc2c(nnn2Cc2ccc(Cl)cc2)c1=O)NC1CCCC1	-11	100	102	7
